miR-21 reporter: raises the signal of a miR-21 reporter. HeLa miR-21 FLuc reporter, luciferase, 48 h. Potency, µM (highest dose often 38.3 µM), inactives show at the top dose reporter change, positive = more light. 340,000 tested, under 10 active. AID 2288; active = well fitted rising curve with a large enough effect; inconclusive = small, poorly fitted or top-dose-only effect; inactive = no such curve, though single readings can be large or run the other way;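 note: % of control where 0% means no effect; miR-21 action dims this reporter so a rising signal means less miR-21 action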
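HeLa cells stably expressing CMV-driven firefly luciferase with a downstream miR-21 binding sequence, endogenously expressing miR-21, were treated with titrations (up to about 40uM final) for 48 hours at 37 degree Celsius. Luciferase luminescence was read after lysis.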
GLA inh pH 4.5: inhibitors of human alpha-galactosidase A at pH 4.5; purified enzyme, 4-MU-alpha-Gal fluorescence, pH 4.5; 230,000 tested, under 10 active; activity change, negative = inhibition, % at 105 µM; inconclusive = small, poorly fitted or top-dose-only inhibition, or a rising curve; inactive = flat fitted curve, though single readings scatter; no compound was filed as active;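 note: 0% = full activity with enzyme and -100% = basal without enzyme; dose as in the result columns while the protocol names 77 µM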
Target sequence (P06280 whole entry, looked up): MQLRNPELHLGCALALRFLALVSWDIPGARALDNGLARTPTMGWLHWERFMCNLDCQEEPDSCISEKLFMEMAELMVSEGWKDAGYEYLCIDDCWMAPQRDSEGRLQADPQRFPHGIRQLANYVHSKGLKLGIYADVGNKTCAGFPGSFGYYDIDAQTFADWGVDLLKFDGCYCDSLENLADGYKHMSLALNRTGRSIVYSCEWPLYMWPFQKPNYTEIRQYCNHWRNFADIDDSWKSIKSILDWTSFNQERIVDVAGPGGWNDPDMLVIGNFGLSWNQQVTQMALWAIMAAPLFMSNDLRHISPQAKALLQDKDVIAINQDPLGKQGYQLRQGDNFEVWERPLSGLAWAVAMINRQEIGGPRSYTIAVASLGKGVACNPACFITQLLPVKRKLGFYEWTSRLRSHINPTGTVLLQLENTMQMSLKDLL
Numbers without * were called inactive; ? = inconclusive; · = no result given; & = joins results of further samples. Not all compounds are listed. The share of hits here may be higher or lower than overall.

SMILES	miR-21 reporter	GLA inh pH 4.5
CC/C=C\C[C@@H](/C=C/C=C\C/C=C\C/C=C\CCCC(=O)O)OO	·	-6.4
CC1Cc2cc3c(cc2C(c2ccc(N)cc2)=NN1)OCO3 (stereo not given)	·	-3.1
CC1(C)S[C@H]2[C@@H](N)C(=O)N2[C@H]1C(=O)O	·	-1.0
CC(=O)OC1CC(OC(C)=O)[C@]2(C)C(CC(OC(C)=O)[C@]3(C)C2CC[C@@]2(C)C(c4ccoc4)C[C@H]4O[C@]432)C1(C)C (stereo not given in full)	·	6.4
C1CC[C@H]([C@@]23C[C@H](C[C@H]4CCCN[C@H]42)[C@@H]2CCCCN2C3)NC1	·	-5.6
O=C1CCC[C@H]2[C@@H]3CCCN4CCC[C@H](CN12)[C@H]34	·	0.4
NCC#Cc1ccccc1	·	-1.9
CC(C)(C)NCC(O)c1ccccc1Cl (stereo not given)	·	1.0&11.5
CC(C)(O)c1[se]c2ccccc2c1I	·	-4.6
CCCN1CCC[C@@H](c2cccc(C#N)c2)C1	·	-18.8
C=C(C)C1CNC(C(=O)O)C1CC(=O)O (stereo not given)	·	-14.6
CC1CC[C@@]2(OC1)OC1C(O)C3C4CC[C@H]5CC(O[C@@H]6O[C@@H](CO)[C@H](OC7OC(CO)C(O)C(OC8OCC(O)C(O)[C@H]8O)[C@@H]7O[C@@H]7OC(CO)[C@H](O)[C@@H](O[C@@H]8OC(CO)C(O)C(O)C8O)C7O)C(O)C6O)C(O)C[C@]5(C)C4CC[C@]3(C)C1C2C (stereo not given in full)	·	6.9
c1ccc([Se]c2c(-c3ccccc3)[se]c3ccccc23)cc1	·	0.0
CN(C)[C@@H]1C(=O)C(C(N)=O)=C(O)[C@]2(O)C(=O)C3=C(O)c4c(O)ccc(Cl)c4[C@](C)(O)[C@H]3C[C@@H]12	·	2.9
CNC(=O)[C@@H]1C[C@H]1[C@@H](NP(=O)(c1ccccc1)c1ccccc1)c1ccccc1	·	3.6
CC[C@@H]1CN2CCc3cc(OC)c(OC)cc3[C@H]2C[C@@H]1C[C@@H]1NCCc2cc(O)c(OC)cc21	·	-6.5
CC[C@H]1C2CC3[C@@H]4N(C)c5ccccc5[C@]45C[C@@H](C2[C@H]5O)N3[C@@H]1O (stereo not given in full)	·	-2.3
CCN1C[C@@]2(COC(=O)c3ccccc3N3C(=O)CC(C)C3=O)CC[C@H](OC)[C@]34C5C[C@@H]6[C@@H](OC)C[C@@](O)(C5[C@H]6OC)[C@@](O)(C13)[C@@H](OC)C24 (stereo not given in full)	·	2.3
COc1cc(CC(=O)OCC2=C[C@H]3[C@@H]4C(C)(C)[C@]4(OC(C)=O)[C@H](OC(=O)Cc4ccccc4)[C@@H](C)[C@]3(O)[C@@H]3C=C(C)C(=O)[C@@]3(O)C2)ccc1O	·	-15.0
C[C@H](NC(C)(C)C)C(=O)c1cccc(Cl)c1	·	16.7
C[C@@H]1C[C@@H](O)[C@@]2(O)[C@]13CC(=O)OC[C@]2(C)[C@@](C)(O)C(=O)C3	·	1.5
C=CCN1CCc2cccc3c2C1Cc1ccc(O)c(O)c1-3 (stereo not given)	·	-7.6
CSC(=S)NCc1c[nH]c2ccccc12	·	-0.7
COC[C@H]1OC(=O)c2coc3c2[C@@]1(C)C1=C(C3=O)[C@H]2CCC(=O)[C@@]2(C)C[C@H]1OC(C)=O	·	-2.5
CCCCC/C=C\C/C=C\C/C=C\C/C=C\CCCC(=O)NC1CC1	·	-14.0
O=C1CC[C@@]2(O)C3Cc4ccc(O)c5c4C2(CCN3CC2CC2)[C@H]1O5 (stereo not given in full)	·	-23.9
C[C@H]1C(=O)O[C@H]2CCN3CC=C(COC(=O)[C@](C)(O)[C@@]1(C)O)C23 (stereo not given in full)	·	2.0
COc1cc2c(cc1O)C[C@H]1c3c(cc(OC)c(O)c3-2)CCN1C	·	1.9
O=C1NCN(c2ccccc2)C12CCN(CCCOc1ccc(F)cc1)CC2	·	-16.7
CCOc1ccc(CN(CCc2ccc3c(c2)OCO3)Cc2ccc(CC)cc2)cc1	4.3%	·
Cc1ccc(Cn2cccc(C(=O)Nc3nc4ccc(C)cc4s3)c2=O)cc1	-5.9%	·
Cc1cc(OCC(=O)N2CCN(CCc3ccncc3)CC2)cc(C)c1Cl	-6.5%	·
CCOc1ccc2nc(NC(=O)c3cccn(Cc4ccccc4)c3=O)sc2c1	-2.4%	·
Cc1ccc(C(C)C)c(OCC(=O)N2CCN(CCc3ccncc3)CC2)c1	-6.1%	·
COc1ccccc1N=c1scc(-c2ccc(S(=O)(=O)N3CCCC3)cc2)n1C	?	·
COc1ccccc1C(=O)Nc1ccc2nc(SCC(=O)N(C)c3ccccc3)sc2c1	?	·
COc1cccc(NC(=O)CCc2nc(-c3ccc(C(C)(C)C)cc3)no2)c1	?	·
Cn1c(=O)n(C)c2cc(CNCCc3ccccc3)ccc21	-5.9%	·
CCOC(=O)c1ccc(N2C(=O)c3n[nH]c(-c4cccs4)c3C2c2ccc(Cl)cc2Cl)cc1 (stereo not given)	?	·
CCOc1ccccc1NC(=O)c1cccn(Cc2ccccc2C)c1=O	1.0%	·
COc1ccc(NC(=O)CN2C(=O)CN=C(c3ccccc3)c3ccccc32)c(OC)c1	-0.9%	·
Cc1ccc(-n2c(/C=C/c3ccc(Br)s3)nc3ccccc3c2=O)cc1C	10.2%	·
COc1ccc(C)cc1NC(=O)c1cccn(Cc2ccccc2Cl)c1=O	-1.4%	·
O=C(Nc1ccc(OC(F)(F)F)cc1)C1CCN(S(=O)(=O)c2cccs2)CC1	?	·
Cc1cccc(CN2CCc3nc(N4CCN(c5ccccn5)CC4)ncc3C2)c1	?	·
Cc1oc(-c2ccccc2Cl)nc1CN1C(=O)CN=C(c2ccccc2)c2cc(Cl)ccc21	-1.5%	·
O=C(COc1cccc(Cl)c1)N1CCN(CCc2ccncc2)CC1	-7.6%	·
O=C(OCc1cc(=O)n2nc(C3CC3)sc2n1)c1ccc(NC(=O)c2ccccc2Cl)cc1	?	·
Cc1ccc(-n2c(/C=C/c3ccccc3)nc3ccccc3c2=O)cc1C	-1.5%	·
O=C(Nc1ccc(Br)cc1C(=O)c1ccccc1)c1ccccc1	-9.2%	·
Later entries:
SMILES	miR-21 reporter	GLA inh pH 4.5
CCCC1=Nc2cc(C(=O)NC3CCC(C)CC3)ccc2Sc2ccccc21 (stereo not given)	14.7%	·
NS(=O)(=O)c1ccc(-c2ccc(C=C3C(=O)NC(=S)NC3=O)o2)cc1	-0.6%	·
COc1ccccc1CNC(=O)CCC1N=C2c3ccccc3N=C(SCc3cccc(Cl)c3)N2C1=O (stereo not given)	?	·
COc1ccc(OCCn2c(NC(=O)c3ccc(OC)cc3)nc3ccccc32)cc1	7.3%	·
O=S1(=O)N(Cc2ccccc2)CCCN1Cc1ccc(F)cc1Cl	4.4%	·
c1cnc2c(c1)ncn2C1CCNCC1	-7.3%	·
O=C(Nc1ccc(Cl)cc1C(=O)c1ccccc1)c1cc(Cl)cc(Cl)c1	0.0%	·
O=C(Nc1ccc(OC(F)(F)F)cc1)c1cccn(Cc2ccccc2Cl)c1=O	-0.3%	·
N#Cc1cc2c(nc1SCC(=O)Nc1cccc(C(F)(F)F)c1)C1CCN2CC1	?	·
Cc1ccccc1Cn1cccc(C(=O)Nc2nc3ccccc3s2)c1=O	7.0%	·
Cc1cccc2sc(NC(=O)c3cccn(Cc4ccccc4)c3=O)nc12	-20.1%	·
Cc1ccc(-n2c(=O)[nH]c3ccc(Br)cc3c2=O)cc1	-14.1%	·
CC(=O)c1cccc(NC(=O)c2cccn(Cc3cccc(C)c3)c2=O)c1	-0.5%	·
Cc1cccc(-n2nc(C)c3c2NC(=O)CSC3c2ccccc2Cl)c1 (stereo not given)	-1.0%	·
O=C(NCCSc1c(-c2ccccc2)[nH]c2ccccc12)c1ccc(S(=O)(=O)N2CCOCC2)cc1	?	·
CCCSc1nc2ccccc2c(=O)n1-c1ccccc1OC	3.6%	·
Cc1ccc(OCC(=O)N2CCN(Cc3ccc(F)cc3)CC2)cc1	10.9%	·
CCOc1ccc(CN(CCc2ccc3c(c2)OCO3)Cc2ccc(OC)c(Br)c2)cc1	4.1%	·
Cc1cccc(N(C)S(=O)(=O)c2cc(-c3cnc(C4CC4)o3)ccc2C)c1	?	·
CC(C)c1ccc(OCC(=O)N2CCN(CCc3ccccn3)CC2)cc1	-14.9%	·
O=C(CCc1nc(C2=CCN(Cc3cccc(Cl)c3)CC2)no1)Nc1ccccc1F	?	·
COCCNc1oc(-c2ccc(OC)cc2)nc1C#N	-56.0%	·
COc1cc(OC)cc(C(=O)Nc2ccc(Cl)cc2C(=O)c2ccccc2Cl)c1	0.2%	·
O=C(c1ccc2c(c1)N(Cc1c(F)cccc1Cl)C(=O)c1ccccc1S2)N1CCC2(CC1)OCCO2	-2.8%	·
Cc1ccc(F)cc1NC(=O)c1ccc(Cn2nc(N3CCN(c4ccccc4)CC3)ccc2=O)o1	?	·
COc1cccc(-c2nn3c(=O)cc(CN4CCN(C(=O)COc5ccccc5C)CC4)nc3s2)c1	-3.8%	·
N#Cc1cc2c(nc1SCC(=O)Nc1ccc(OC(F)(F)F)cc1)C1CCN2CC1	5.5%	·
CCc1ccc(OCC(=O)N2CCN(CCc3ccccn3)CC2)cc1	4.9%	·
COc1ccccc1C1SCC(=O)Nc2c1c(C)nn2-c1cccc(C)c1 (stereo not given)	-12.4%	·
COc1ccc(/C=C/c2nc3ccccc3c(=O)n2-c2ccc(C)cc2)cc1O	2.9%	·
Cc1oc2cc3oc(=O)c(CCC(=O)N4CCCCC4)c(C)c3cc2c1C	-48.5%	·
O=C(O)c1ccccc1NC(=O)C1C2CCC(O2)C1C(=O)O (stereo not given)	-14.3%	·
Nc1c(C(=O)Nc2cccc(Br)c2)sc2nc3c(cc12)N1CCC3CC1	1.6%	·
Cc1cccc(-n2c(/C=C/c3c(C)[nH]c4ccccc34)nc3ccccc3c2=O)c1	-5.1%	·
Cc1ccc(Cl)cc1Nc1nn2c(=O)c3ccc(C(=O)NCc4cccs4)cc3nc2s1	?	·
COc1ccc(OCC(=O)N2CCN(CCc3ccccn3)CC2)cc1	-1.4%	·
Cc1ccccc1-n1nc(C)c2c1NC(=O)CSC2c1ccc(Cl)cc1 (stereo not given)	0.8%	·
COc1ccc(OCC(=O)N2CCN(Cc3cccc(OC)c3OC)CC2)cc1	2.5%	·
COc1ccc2nc(NC(=O)c3nc(S(=O)(=O)Cc4cccc(C)c4)ncc3Cl)sc2c1	?	·
COc1ccc(C(=O)Nc2ccc(Cl)cc2C(=O)c2ccccc2)c(OC)c1	-0.4%	·
O=C(Nc1ccccc1)N(Cc1ccc2c(c1)OCO2)C1CCN(Cc2ccccc2)CC1	-5.8%	·
O=C(Nc1ccc2c(c1)OCCO2)c1cccn(Cc2cccc([N+](=O)[O-])c2)c1=O	12.3%	·

Among those listed so far, twelve contain four or more nitrogen atoms:
SMILES	miR-21 reporter	GLA inh pH 4.5
Cc1cccc(CN2CCc3nc(N4CCN(c5ccccn5)CC4)ncc3C2)c1	?	·
O=C(OCc1cc(=O)n2nc(C3CC3)sc2n1)c1ccc(NC(=O)c2ccccc2Cl)cc1	?	·
COc1ccccc1CNC(=O)CCC1N=C2c3ccccc3N=C(SCc3cccc(Cl)c3)N2C1=O (stereo not given)	?	·
c1cnc2c(c1)ncn2C1CCNCC1	-7.3%	·
N#Cc1cc2c(nc1SCC(=O)Nc1cccc(C(F)(F)F)c1)C1CCN2CC1	?	·
O=C(CCc1nc(C2=CCN(Cc3cccc(Cl)c3)CC2)no1)Nc1ccccc1F	?	·
Cc1ccc(F)cc1NC(=O)c1ccc(Cn2nc(N3CCN(c4ccccc4)CC3)ccc2=O)o1	?	·
COc1cccc(-c2nn3c(=O)cc(CN4CCN(C(=O)COc5ccccc5C)CC4)nc3s2)c1	-3.8%	·
N#Cc1cc2c(nc1SCC(=O)Nc1ccc(OC(F)(F)F)cc1)C1CCN2CC1	5.5%	·
Nc1c(C(=O)Nc2cccc(Br)c2)sc2nc3c(cc12)N1CCC3CC1	1.6%	·
Cc1ccc(Cl)cc1Nc1nn2c(=O)c3ccc(C(=O)NCc4cccs4)cc3nc2s1	?	·
COc1ccc2nc(NC(=O)c3nc(S(=O)(=O)Cc4cccc(C)c4)ncc3Cl)sc2c1	?	·

Profiles as entered above. Order of screens: miR-21 reporter	GLA inh pH 4.5
`CC1CC[C@@]2(OC1)OC1C(O)C3C4CC[C@H]5CC(O[C@@H]6O[C@@H](CO)[C@H](OC7OC(CO)C(O)C(OC8OCC(O)C(O)[C@H]8O)[C@@H]7O[C@@H]7OC(CO)[C@H](O)[C@@H](O[C@@H]8OC(CO)C(O)C(O)C8O)C7O)C(O)C6O)C(O)C[C@]5(C)C4CC[C@]3(C)C1C2C` (stereo not given in full) reads ·	6.9
`Cc1ccc(C(C)C)c(OCC(=O)N2CCN(CCc3ccncc3)CC2)c1` reads -6.1%	·
